# Bioassay records (PubChem BioAssay)
# HCMV UL50-53 inh: disrupts HCMV UL50-UL53 complex binding. HTRF UL50-UL53 interaction, normalized percent inhibition. inhibition, % (test concentration not listed). 0.15% of 190,000 active. AID 1918969;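 active means both replicates at 50% or more, plus weaker picks with an unusually low signal ratio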;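 further: stock transfer was 100 nL into about 20 µL; 0% = negative control wells and 100% = wells with untagged competitor protein; inactives centre near -12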
# GIV-Gai inh: inhibitors of GIV GBA-motif binding to rat Galpha-i3; Galpha-i3/FITC-GIV peptide fluorescence polarization, 90 min; hits give low values; scaled: aluminum fluoride 0%, vehicle 100%; percent of control (FP), % (test concentration not listed); 0.42% of 210,000 active; AID 1224905;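 active means replicate mean at 85% of control or lower, very high polarization wells dropped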;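 further: wells of about 15 µL received 100 nL stock; the first replicate is given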
# Target sequence (P08753 whole entry, looked up): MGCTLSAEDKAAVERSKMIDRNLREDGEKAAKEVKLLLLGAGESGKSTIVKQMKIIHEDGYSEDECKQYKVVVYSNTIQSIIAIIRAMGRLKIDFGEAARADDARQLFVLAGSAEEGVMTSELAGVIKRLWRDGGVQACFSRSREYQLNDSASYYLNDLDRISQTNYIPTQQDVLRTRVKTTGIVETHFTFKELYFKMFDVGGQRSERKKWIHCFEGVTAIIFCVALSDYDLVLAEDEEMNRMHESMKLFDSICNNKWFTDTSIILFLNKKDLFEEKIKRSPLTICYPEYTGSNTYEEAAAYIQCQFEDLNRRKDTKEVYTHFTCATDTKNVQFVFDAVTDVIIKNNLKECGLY
# Sa growth 42C: inhibitors of Staphylococcus aureus growth at 42 °C; 0.53% of 170,000 active; relative growth, % (no concentration beside the values); S. aureus RN4220 growth, OD600, 20 h; hits give low values;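 active means growth at 42 °C up to 50% and 20 or more points under that at 30 °C, or under 10% at both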;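 further: 300 nL library stock went into each well; scaled to the means of positive and negative controls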
# Sa growth 42C second temp: second read-out of Sa growth 42C, no call of its own (marks repeat the call); relative growth, %; measured here: growth at 30 °C;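 optical density after 20 h as mean of two plates; 100% = untreated growth and lower means inhibition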
# * hit, by the source's call; nt = no result given; & = joins results of further samples.
SMILES,HCMV UL50-53 inh,GIV-Gai inh,Sa growth 42C,Sa growth 42C second temp
CC1CCCN(c2ncnc3c2nnn3C)C1 (stereo unspecified),nt,96&103,108,87
CCN1CCN(c2ccc(N3CCN(C(=O)c4cc(OC)c(OC)c(OC)c4)CC3)nn2)CC1,-49,104,79,88
Cn1c(CNC(=O)c2ccccc2F)nnc1SCC(=O)N1CCN(c2ccccc2)CC1,-13,106,94,90
CCOC(=O)c1c(-c2ccc(OC)cc2)oc2ccc(OCc3ccc(F)cc3F)cc12,-42,102,94,81
O=C(NCCO)C(O)(c1ccccc1)c1ccccc1,-20,nt,92,79
Cc1ccc2c(c1)c(N1CCCC1=O)c(C(=O)Nc1ccc(F)cc1F)n2C,nt,107,110,101
CC1=Nn2c(nc3sc(C)c(C)c3c2=O)SC1,-67,99,95,88
CN1CCN(C(=O)c2ccco2)CC1,1,104,101,106
CC(C(=O)N1CCCc2ccccc21)N1CCN(C(=O)c2ccccc2)CC1 (stereo unspecified),-14,nt,80,94
CCC(C)NC(=O)c1sc2ncccc2c1-n1c(C)ccc1C (stereo unspecified),nt,102,96,88

# Overlap with the part before: five entries, then new ones.
SMILES,HCMV UL50-53 inh,GIV-Gai inh,Sa growth 42C,Sa growth 42C second temp
Cc1ccc2c(c1)c(N1CCCC1=O)c(C(=O)Nc1ccc(F)cc1F)n2C,nt,107,110,101
CC1=Nn2c(nc3sc(C)c(C)c3c2=O)SC1,-67,99,95,88
CN1CCN(C(=O)c2ccco2)CC1,1,104,101,106
CC(C(=O)N1CCCc2ccccc21)N1CCN(C(=O)c2ccccc2)CC1 (stereo unspecified),-14,nt,80,94
CCC(C)NC(=O)c1sc2ncccc2c1-n1c(C)ccc1C (stereo unspecified),nt,102,96,88
O=C1N(O)C2(C=CCCC2)/C(=N/O)C12CCCCC2 (stereo unspecified),-35,101,91,85
CCC(NC(=O)COc1ccc(-n2cnnn2)cc1)c1ccc(Br)cc1 (stereo unspecified),-12,nt,83,83
Cc1cc(C(=O)Nc2ccc(F)c(F)c2)c2c(=O)n(C)c(=O)n(C)c2n1,-26,104,nt,nt
COC(=O)c1ccc(OC(=O)Cc2coc3cc(OC)ccc23)cc1,-38,nt,95,89
Cc1c(-c2cccc(NC(=O)c3cccc(Cl)c3)c2)nc2ncccn12,-18,97,81,86
O=C(O)Cc1c[nH]c2ccc(O)cc12,-10,105,nt,nt
CCOc1ccc(Cc2c(Cl)nc(SC)nc2Cl)cc1,-8,nt,106,89
Cc1ccn2c(=O)c(NC(=O)c3ccc(F)cc3)cnc2c1,-53,100,nt,nt
CCOc1ncccc1C(=O)NCCOc1ccc(C)cc1,-32,nt,90,81
COCCN1C(=O)/C(=C\c2cc(OC)ccc2OC)C(C(=O)OC)=C1C,-15,106,93,85
NC(=O)Nc1ccc(C(=O)OCC(=O)Nc2ccc(F)cc2F)cc1,3,nt,92,87
CCOc1ccccc1NC(=O)C1CCN(S(=O)(=O)c2c(C)noc2/C=C/c2ccco2)CC1,-20,114,111,84
CCC(Sc1nc2n[nH]c(C)c2c(=N)n1-c1cccc(Cl)c1C)C(=O)N(CC)CC (stereo unspecified),nt,105,109,88
O=C(Nc1ccnn1Cc1ccc(Br)cc1)[C@@H]1CCCN1C(=O)c1cccs1,25,nt,126,102
Cc1ccc(C(C)C)cc1OCC(=O)N=c1sccn1C,-7,nt,106,94
CCc1c(O)nc(SCC(=O)NCC2CCCO2)[nH]c1=O (stereo unspecified),-13,106,96,84
CS(=O)(=O)N(CC(O)Cn1c2ccccc2c2ccccc21)c1ccccc1 (stereo unspecified),-29,103,86,47
COc1ccc2cc([C@H](C)CO)ccc2c1,-27,nt,92,92
CCOC(=O)c1ccc(NC(=O)c2cc3sccc3n2Cc2ccc(Cl)cc2)cc1,-24,96,110,73
O=S(=O)(c1ccc(F)cc1)N1CCC(n2c(C(F)(F)F)nc3cccnc32)CC1,nt,101,80,89

# Individual results from the list:
# CCC(NC(=O)COc1ccc(-n2cnnn2)cc1)c1ccc(Br)cc1 (stereo unspecified) in Sa growth 42C second temp shows 83
# COc1ccc2cc([C@H](C)CO)ccc2c1 in Sa growth 42C second temp shows 92
# NC(=O)Nc1ccc(C(=O)OCC(=O)Nc2ccc(F)cc2F)cc1 in Sa growth 42C shows 92
# O=C1N(O)C2(C=CCCC2)/C(=N/O)C12CCCCC2 (stereo unspecified) in Sa growth 42C shows 91

# (cont.)
SMILES,HCMV UL50-53 inh,GIV-Gai inh,Sa growth 42C,Sa growth 42C second temp
Cc1cccc(N2CCN(C(=O)c3cnc(N4CCCC4)nc3C)CC2)c1C,nt,102,100,87
COc1cc(N2CCn3c(nc4cc(Cl)ccc43)C2)ccc1NS(C)(=O)=O,10,97,nt,nt
COc1ccc(/C=C2\SC(N)=NC2=O)cc1O,nt,109,94,66
CCN(Cc1ccccc1)C(=O)c1cc2cccnc2n(C)c1=O,-28,102,89,89
CC12C=CC(C)(O1)C1C(=O)N(c3ccccc3C#N)C(=O)C12 (stereo unspecified),-9,97,nt,nt
Nc1ccc(Oc2ncccn2)cc1,-22,104,nt,nt
COc1ccccc1-c1ncnn1-c1sc2c(c1C#N)CCCCC2,-32,106,98,83
N/C(=N\O)C1CSc2ccccc2C1=O (stereo unspecified),5,109,93,100
Cc1ccc(C)n1-c1ccc(C(=O)OC2CCOC2=O)cc1 (stereo unspecified),-9,nt,80,74
N#CCCn1c(SCC(=O)NCCSc2ccc(Cl)cc2)nc2ccccc21,-18,nt,88,80
COc1ccc(OC)c(NC(=O)CSc2ncnc3nc(N(C)C)sc23)c1,-14,107,nt,nt
CCOC(=O)C1=C(C(F)(F)F)Nc2ncnn2C1c1ccc(OC)cc1 (stereo unspecified),-12,101,99,93
Cc1ccc2oc(=O)c3cnn(CC(=O)N(C(C)C)C4CCCCC4)c3c2c1,6,104,104,98
Cc1ccc(C(=O)COC(=O)c2cc(-c3cccs3)nc3ccccc23)cc1,-25,101,100,90
CC(C)CCSc1nc2c(c(=O)n(C)c(=O)n2C)n1Cc1ccccc1Cl,-7,103,110,89
CO/C(N)=N/C(=S)Nc1cccc(C(F)(F)F)c1,-21,103,96,77
CC(=O)c1cccc(NC(=O)c2sc(-n3nc(C)c(Cc4ccc5c(c4)OCO5)c3C)nc2C)c1,12,106,103,93
Cc1c(C)n(C(=O)CSc2ccccn2)c2ccccc12,4,110,93,92
CC(=O)N1CCN(C2CCN(CCc3ccccc3)CC2)CC1,-15,104,99,108
CC(C)COC(=O)Nc1ccc2c(c1)OCO2,-7,106,114,88
N#Cc1cccc(NC(=O)C2SC(=Nc3ccccc3)C(C(=O)N3CCOCC3)=C2N)c1 (stereo unspecified),-18,nt,94,81
CCOC(=O)c1oc2ccc(Br)cc2c1NC(C)=O,16,105,100,89
S=C(Nc1ccccc1)Nc1nc2ccccc2n1CCOc1ccc(Cl)cc1,nt,102,85,93
Cn1ncc2c(N3CCN(c4ccccc4F)CC3)ncnc21,nt,99,102,84
Cc1cc(Nc2ccccc2)n(CCOC(=O)COc2ccccc2)n1,13,nt,93,91
COc1ccc(Cn2ccnc2SCC(=O)NCc2ccccc2)cc1,nt,101,120,90
O=C(COc1ccccc1)N1CCN(c2ccccc2F)CC1,-4,106,105,102
Cc1ccc(-n2c(SCc3nnc4n3CCC4)nnc2-c2ccccc2)cc1,6,nt,89,95
Cc1ccc(/C(C#N)=C\c2cc(C)n(C)c2C)cc1,-8,102,117,76
Cc1cc(C2=NN(C)C(=NCc3ccccc3)SC2)c(C)n1Cc1ccco1,-3,nt,92,99
CCc1sc2ncnc(N(C)C)c2c1-c1ccccc1,-10,99,92,80
O=C(c1cncc(Br)c1)N1CC=C(c2ccccc2)CC1,-10,nt,111,79
COc1ccc(N2C(=O)c3c(C)nc4ccccc4c3C2=O)cn1,-38,84*,nt,nt
CCCCn1c(C)c(C)c2c1ncn1nc(-c3ccccc3Br)nc21,-22,111,nt,nt
CSc1ccc(CCNC(=O)c2cccc3c2C(=O)N(CC2CCCO2)C3)cc1 (stereo unspecified),nt,104,86,63
O=C(NCc1ccccn1)C1CCCN(c2ccc3cc(S(=O)(=O)N4CCCC4)ccc3n2)C1 (stereo unspecified),-38,104,nt,nt
CC(C)CC(=O)NC(c1ccccc1)c1c(O)ccc2ccccc12 (stereo unspecified),-2,nt,95,89
COc1ccccc1OCCCn1c(C2CC(=O)N(c3ccccc3Cl)C2)nc2ccccc21 (stereo unspecified),-7,109,110,82
Cc1cc(Nc2cccc(O)c2)ncn1,-4,109,nt,nt
O=C1NC(=O)C2(CCCC2)N1,-6,nt,97,95

# Four compounds from above, reduced to Sa growth 42C second temp, GIV-Gai inh and HCMV UL50-53 inh:
Molecule | Sa growth 42C second temp | GIV-Gai inh | HCMV UL50-53 inh
CC(C)CC(=O)NC(c1ccccc1)c1c(O)ccc2ccccc12 (stereo unspecified) | 89 | nt | -2
COc1ccccc1OCCCn1c(C2CC(=O)N(c3ccccc3Cl)C2)nc2ccccc21 (stereo unspecified) | 82 | 109 | -7
Cc1cc(Nc2cccc(O)c2)ncn1 | nt | 109 | -4
O=C1NC(=O)C2(CCCC2)N1 | 95 | nt | -6

# Next part.
SMILES,HCMV UL50-53 inh,GIV-Gai inh,Sa growth 42C,Sa growth 42C second temp
CCc1ccc(NC(=O)CSc2ccc(-c3cccs3)nn2)cc1,nt,99,99,96
CCC1CCCCN1C(=O)Cc1c(C)nc2nc(-c3ccc(C(C)(C)C)cc3)nn2c1C (stereo unspecified),-5,100,nt,nt
Cc1ccc(-c2cc(C(=O)NCc3ccccc3)c3c(-c4ccc(C)cc4)[nH]nc3n2)cc1,nt,99,99,88
Nc1ccc(C(O)C(O)CO)cc1 (stereo unspecified),-5,nt,87,91
COc1ccccc1Nc1nnc(SCC(=O)N(C)Cc2cccs2)s1,-26,nt,96,88
Cc1cc(-c2nnnn2-c2ccc(F)cc2)no1,5,106,93,102
Cn1c(C(=O)N2CCN(c3ccccn3)CC2)cc2c(=O)oc3ccccc3c21,-12,104,nt,nt
COc1ccc(N2CCN(C(=O)c3cc4c(=O)oc5ccc(C)cc5c4s3)CC2)cc1,-8,104,nt,nt
COc1ccc2cc3cc(C(=O)NCC4CCN(Cc5cccc(C)c5)CC4)sc3nc2c1,nt,100,110,84
CCOC(=O)c1c(C)[nH]c(C)c1C(=O)CO/N=C/c1ccco1,-50,nt,87,93
COc1ccc(C2=NN(C(=O)CCC(=O)O)C(c3ccccc3)C2)cc1OC (stereo unspecified),-69,102,nt,nt
NC(=O)c1ccccc1NC(=O)C(F)(F)F,3,nt,113,100
Cc1cccn2c(=O)c3cc(C(=O)NCCN4CCOCC4)c(=N)n(C(C)C)c3nc12,nt,106,101,84
CCc1ccc(-n2c(=O)c3cccnc3n2CC(=O)Nc2ccc(Br)cc2F)cc1,2,106,nt,nt
Cc1n[nH]c(C)c1-c1cc(C(=O)O)[nH]n1,-22,109,nt,nt
CCOC(=O)N1CCN(C(=O)Cn2ncc3c4ccccc4n(Cc4ccc(F)cc4)c3c2=O)CC1,0,99,99,90
CC(OC(=O)CN1C(=O)c2ccccc2C1=O)C(=O)Nc1cccc(C#N)c1 (stereo unspecified),9,nt,89,104
O=C(Oc1ccc(F)cc1)c1nc(SCc2ccc(F)cc2)ncc1Cl,-22,104,96,82
Cc1cc(NC(=O)COC(=O)CSc2ccccc2)no1,-8,nt,107,86
CC(O)CNc1nc2ccccc2n1CC(=O)NCC(F)(F)F (stereo unspecified),-2,nt,96,96
CCOc1c(Br)cc(/C=C2N=C(/C=C/c3ccccc3)OC/2=O)cc1OC,-14,94,nt,nt
COc1ccc(NC(=O)CN(CC(=O)Nc2ccc(OC)cc2)C(C)(C)CO)cc1,-18,nt,89,90
Cc1cc2ccccc2n2c(SCC(=O)O)nnc12,-37,103,77,74
O=C(Nc1cc(C(F)(F)F)ccc1Cl)c1noc2c1CCCCC2,-10,100,109,86
CSc1nc2cc(C)nn2c(-c2ccccc2Cl)c1C#N,-5,101,111,92
CN(C)c1cccc(C(=O)OCC(=O)Nc2ccccc2Cl)c1,-4,nt,87,86
CC(=O)N1Cc2ccccc2CC1C(=O)Nc1ccc(F)cc1C (stereo unspecified),-5,nt,115,88
O=C(O)c1ccccc1N=Nc1c(O)c2ccccc2oc1=O,-116,110,100,90
COc1cc(C(=O)CC2(O)C(=O)N(Cc3ccccc3Cl)c3ccccc32)cc(OC)c1OC (stereo unspecified),-12,110,109,94
CCc1ccc(NC(=O)CCNC(=O)Cn2cnc3ccccc3c2=O)cc1,-2,97,105,90
Cc1sc2nc(CN(C(=O)c3cccs3)C3CCCC3)[nH]c(=O)c2c1C,-12,98,113,90

# The order is random, and some 0.8% of all compounds hit somewhere here.
